miR-21 reporter – qHTS Assay for Modulators of miRNAs and/orActivators of miR-21; Potency, µM (doses to about 38.3 µM), without a hit: top-dose reporter change, positive = more light; HeLa miR-21 FLuc reporter, luciferase, 48 h; 340,000 tested, under 10 active; AID 2288, 2010; active = well fitted rising curve with a large enough effect; inconclusive = small, poorly fitted or top-dose-only effect; inactive = no such curve, though single readings can be large or run the other way;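 also: % of control where 0% means no effect; miR-21 action dims this reporter so a rising signal means less miR-21 action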
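Using DMEM plus 10% FBS, HeLa miR-21-FLuc cells are incubated with test compounds (final up to about 40uM) for 48 hours; firefly luciferase signal is then imaged following reagent-mediated lysis.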
Rango complex inh – qHTS Assay for Inhibitors of Rango (Ran-regulated importin-beta cargo) - Importin beta complex formation. Importin subunit beta-1 (Homo sapiens), Q14974. Rango CFP/YFP FRET sensor + importin beta, 45 min. AID 540263, 2011. Potency, µM (top dose mostly 92.2 µM), inactives show top-dose inhibition of complex formation. 340,000 tested, 0.031% active; active = rising FRET ratio curve, often small or poorly fitted; inconclusive = mostly compound fluorescence or quenching in the first reads; inactive = flat curves in all reads;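 also: potency is read from the fitted curve at half-maximal effect; 0% = DMSO wells and 100% = buffer wells lacking importin beta; nearly all actives have a fitted effect of over 15% in size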
Target sequence (Q14974 whole entry, looked up): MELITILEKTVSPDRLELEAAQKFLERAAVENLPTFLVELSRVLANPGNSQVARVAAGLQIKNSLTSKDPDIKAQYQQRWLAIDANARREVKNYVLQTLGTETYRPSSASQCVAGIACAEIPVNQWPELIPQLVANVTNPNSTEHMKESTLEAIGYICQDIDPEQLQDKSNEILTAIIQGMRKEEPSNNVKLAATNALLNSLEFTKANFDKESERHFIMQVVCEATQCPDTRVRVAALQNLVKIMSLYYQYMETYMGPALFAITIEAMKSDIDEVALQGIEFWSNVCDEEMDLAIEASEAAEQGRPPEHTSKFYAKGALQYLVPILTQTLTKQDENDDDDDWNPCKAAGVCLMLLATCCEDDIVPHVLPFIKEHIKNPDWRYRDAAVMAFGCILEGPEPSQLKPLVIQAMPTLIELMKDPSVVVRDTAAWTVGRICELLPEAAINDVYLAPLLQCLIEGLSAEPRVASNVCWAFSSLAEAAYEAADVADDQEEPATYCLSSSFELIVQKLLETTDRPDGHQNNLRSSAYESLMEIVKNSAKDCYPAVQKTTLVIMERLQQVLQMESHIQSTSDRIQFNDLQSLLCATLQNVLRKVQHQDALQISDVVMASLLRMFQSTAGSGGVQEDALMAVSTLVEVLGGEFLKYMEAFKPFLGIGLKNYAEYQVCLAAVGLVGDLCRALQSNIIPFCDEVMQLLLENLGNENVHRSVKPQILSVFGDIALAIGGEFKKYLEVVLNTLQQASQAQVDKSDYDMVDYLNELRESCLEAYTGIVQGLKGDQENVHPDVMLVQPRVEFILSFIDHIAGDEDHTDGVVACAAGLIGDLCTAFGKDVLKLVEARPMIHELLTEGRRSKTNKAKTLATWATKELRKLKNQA
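Inhibition scored from the CFP 486 nm/YFP 530 nm FRET ratio 45 min after adding 0.125 microM importin beta to 50 nM Rango biosensor preincubated 5 min with compound (room temperature, PBS with DTT, Tween-20, BSA). No-importin wells as positive control.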
Rango dissoc inh – qHTS Assay for Inhibitors of RanGTP induced Rango (Ran-regulated importin-beta cargo) - Importin beta complex dissociation | Snurportin-1 (Homo sapiens) + GTP-binding nuclear protein Ran (Homo sapiens) + Importin … | Potency, µM (titrated, usually from 46.1 µM), for inactives: top-dose activity change, negative = inhibition | 340,000 tested, 0.071% active | Biochemical FRET Rango-importin beta, RanGTP-induced dissociation | AID 540253, 2011; active means falling FRET ratio curve, often poorly fitted, with flat reads before Ran was added; inconclusive means other falling curves, or compound fluorescence or quenching; inactive means flat or rising ratio curve;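 also: potency is read from the fitted curve at half-maximal effect; % of control where 0% means no effect; nearly all actives have a fitted effect of over 45% in size; -100% = wells without RanGTP and RCC1; the record marks most hits as doubtful in a second field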
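Compounds preincubate 5 min with complex of recombinant Rango and importin beta in PBS with 1 mM DTT. Ran (0.6 uM) loaded with 2 mM GTP plus 0.2 uM RCC1 starts dissociation; FRET is recorded 45 min later.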
GLA inh pH 4.5 – qHTS Assay for Inhibitors of Human alpha-Galactosidase at pH 4.5 | Alpha-galactosidase A (Homo sapiens), P06280 | purified enzyme, 4-MU-alpha-Gal fluorescence, pH 4.5 | activity change, negative = inhibition, % at 105 µM | 230,000 tested, under 10 active | AID 1467, 2008; inconclusive = small, poorly fitted or top-dose-only inhibition, or a rising curve; inactive = flat fitted curve, though single readings scatter; no compound was filed as active;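 also: 0% = full activity with enzyme and -100% = basal without enzyme; dose as in the result columns while the protocol names 77 µM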
Numbers without * were called inactive; ? = inconclusive; · = no result given; & = joins results of further samples. This is a subset. The share of hits here may be higher or lower than overall.

Rango dissoc inh	GLA inh pH 4.5	Rango complex inh	miR-21 reporter	SMILES
1%	·	-0.1%	-67%	CC(O)c1ccc(OCCN(C)c2ccccn2)cc1 (stereo unspecified)
3%	1	0.5%	-22%	Cc1nc(C(F)(F)F)c(C(=O)NC(=O)Nc2ccccc2)s1
-13%	·	0.9%	0%	COc1ccccc1CCNC(=O)CCCn1nc(C)c2c(C)n(-c3ccc(C)cc3)nc2c1=O
20%	-3	-0.1%	-1%	Cc1ccc(/C=N/NC(=O)CSc2nc3ccccc3n2Cc2ccccc2)o1
-13%	-2	?	-1%	CCc1nnc(NC(=O)CN2CCN(c3nc(-c4ccccc4)cs3)CC2)s1
-2%	0	-0.2%	-1%	CC/C(=N\NC(=O)OC)c1ccc(OC(F)F)cc1
8%	6	-1.0%	-14%	COc1ccc(C2CC(c3ccc(F)cc3)Nc3nc(N)nn32)cc1 (stereo unspecified)
1%	-10	-2.9%	-15%	O=C(Nc1ccc(N2CCOCC2)c(S(=O)(=O)Nc2ccc(Cl)cc2)c1)c1cnccn1
7%	-2	0.3%	13%	COCC(=O)Nc1ncc(S(=O)(=O)c2ccc([N+](=O)[O-])cc2)s1
2%	·	-1.1%	·	O=C(COC(=O)CCC(=O)c1cccs1)NC1CCCCC1
7%	1	-0.6%	-11%	CCN(c1ccccc1)S(=O)(=O)c1ccc(OC)c(OC)c1
0%	·	-1.2%	0%	CN1CCN(C(=S)NC(=O)c2cccc([N+](=O)[O-])c2)CC1
0%	0	2.4%	3%	O=C1C2CC=CCC2C(=O)N1c1ccc(OCC(O)Cn2nnc3ccccc32)cc1 (stereo unspecified)
1%	3	0.3%	-65%	CCc1ccc(C(=O)N/N=C/c2cccc3ccccc23)nc1
9%	·	?	-2%	CCN(CC(=O)NCc1ccc(F)cc1)C(=O)CN1CCN(c2ccc(OC)cc2)CC1
30%	4	6.7%	0%	COc1ccc(-n2c(SCC(=O)N3CCOCC3)nnc2C(C)N2CCCCC2)cc1 (stereo unspecified)
0%	·	-0.7%	-20%	COC(=O)[C@@H](NC(=O)c1cc(COc2cncc(Cl)c2)on1)c1ccccc1
2%	3	-0.7%	0%	Cc1cc(NC(=O)c2ccccc2)n(C(C)(C)C)n1
15%	2	0.1%	0%	O=C(O)CCSc1nc2ccc(Br)cc2[nH]1
3%	2	-2.1%	-5%	COc1ccc2[nH]c(=O)c(CN(CCN(C)C)C(=O)NCc3ccccc3)cc2c1
-16%	·	?	·	C[C@H](O)[C@H](O)[C@H]1CNc2nc(N)[nH]c(=O)c2N1
2%	7	-0.2%	-9%	CC(C)CCn1c(NCCN(C)C)nc2c1c(=O)[nH]c(=O)n2C
5%	-6	1.7%	-9%	Cc1c(-c2ccccc2)oc2c(C(=O)OCC(=O)Nc3cccc(F)c3)cccc2c1=O
0%	·	2.5%	1%	CCn1cc(C(=O)NCCCOC)c(=O)c2cc(S(=O)(=O)N3CCC(C)CC3)ccc21
1%	2	-0.2%	-6%	COC(=O)COc1ccc(S(=O)(=O)N2CCOCC2)cc1C
0%	0	-2.0%	-7%	COc1ccccc1CNC(=O)c1cc2sccc2n1C
1%	-27	4.6%	18%	Nc1nc(NCc2ccco2)nc(N2CCCCCC2)c1[N+](=O)[O-]
2%	?	-2.5%	3%	CCOC(=O)C1CCCN(C(=O)c2cc(-c3ccc(C)cc3)nc3ccccc23)C1 (stereo unspecified)
37%	7	-2.3%	-16%	Cc1ccc2nc(CSc3nnc(Cc4cccs4)n3C3CCCCC3)cc(=O)n2c1
-18%	-5	-1.6%	-8%	Cc1ccc(S(=O)(=O)Cn2nnnc2C(CC(C)C)N2CCN(c3ccc(F)cc3)CC2)cc1 (stereo unspecified)

Single values from above:
`Cc1ccc(/C=N/NC(=O)CSc2nc3ccccc3n2Cc2ccccc2)o1` | Rango dissoc inh = 20%
`COc1ccccc1CNC(=O)c1cc2sccc2n1C` | Rango dissoc inh = 0%
`CCOC(=O)C1CCCN(C(=O)c2cc(-c3ccc(C)cc3)nc3ccccc23)C1` (stereo unspecified) | Rango complex inh = -2.5%
`O=C(COC(=O)CCC(=O)c1cccs1)NC1CCCCC1` | Rango dissoc inh = 2%
`O=C(Nc1ccc(N2CCOCC2)c(S(=O)(=O)Nc2ccc(Cl)cc2)c1)c1cnccn1` | Rango complex inh = -2.9%
`COc1ccc(-n2c(SCC(=O)N3CCOCC3)nnc2C(C)N2CCCCC2)cc1` (stereo unspecified) | GLA inh pH 4.5 = 4
`CC(C)CCn1c(NCCN(C)C)nc2c1c(=O)[nH]c(=O)n2C` | Rango complex inh = -0.2%

The list continues.
Rango dissoc inh	GLA inh pH 4.5	Rango complex inh	miR-21 reporter	SMILES
0%	-6	1.0%	-16%	Cc1ccc(Cl)cc1NC(=S)N1CCC(c2ccccc2)C1 (stereo unspecified)
-8%	·	-0.2%	·	OCc1nc2ccccc2n1CCOc1ccccc1
-5%	·	-1.0%	·	Nc1nc(COC(=O)C2CCN(C(=O)c3ccc(Cl)cc3)CC2)nc(Nc2ccccc2)n1
9%	·	0.0%	·	Cc1ccc(S(=O)(=O)N2CCCCC2)cc1NC(=O)CSc1nnc(C2CC2)n1C
-5%	-7	?	-9%	O=C(c1ccc(Cl)c(F)c1F)N1CCCC1
-5%	5	0.8%	-4%	CC(C(=O)Nc1ncc2c(n1)CC(C)(C)CC2=O)N1C(=O)c2ccccc2C1=O (stereo unspecified)
3%	·	5.3%	·	CCc1nnc(NC(=O)CSc2ccc(-c3ccc(-n4cccn4)cc3)nn2)s1
?	-15&-23	0.8%	-7%	CC1=C(C(=O)OCc2ccccc2)C(c2ccc(Cl)cc2)NC(=O)N1CCCCCC(=O)O (stereo unspecified)
-2%	-1	0.0%	-11%	CC(=O)c1cccc(NC(=O)c2nccnc2C(=O)O)c1
5%	-11	1.8%	-32%	N=c1c2c3c(sc2nc2n1CCCCC2)CCCC3
28%	·	0.7%	·	COc1ccc2nc(NC(=O)c3c(C)noc3C)sc2c1
-7%	·	-4.6%	·	CC1CC(C)(C)CC2(C1)NC(=O)N(CC(=O)OCC(=O)Nc1cc(S(=O)(=O)N3CCCCC3)ccc1Cl)C2=O (stereo unspecified)
6%	7	2.4%	13%	CCn1c2ccccc2c2cc(NS(=O)(=O)c3ccccc3C)ccc21
1%	2	0.0%	-8%	CCOc1cc(/C=C2\C(=O)NN(c3ccccc3)C2=O)cc([N+](=O)[O-])c1O
-15%	-6	-3.7%	-1%	C=CCOc1ccc(/C=C2\C(=N)N3N=C(S(=O)(=O)CC)SC3=NC2=O)cc1OC
1%	-13	-1.2%	0%	CCCNC(=S)N1CCN(C(c2ccccc2)c2ccccc2)CC1
-3%	-1	0.8%	0%	CN1CCC(=NNC(=O)C(=O)NC2CCCCC2)CC1
-18%	-1	4.3%	-2%	CN(CC(=O)Nc1ccc(C(N)=O)cc1)CC(=O)Nc1ccccc1Cl
-2%	·	1.0%	·	Cc1ccc2nc(SCC(=O)Nc3ccc(F)cc3F)nc(=O)n2c1
-3%	3	-2.1%	5%	COCCCn1c(Cc2ccccc2)nnc1SCC(=O)N1CCCCC1
2%	·	0.4%	-5%	O=C1CNC(=S)N1Cc1ccc(Cl)cc1
3%	·	?	·	CCOc1ccc(S(=O)(=O)N2CCCCC2)cc1NC(=O)CN1C(=O)NC(C)(c2ccc(C)cc2)C1=O (stereo unspecified)
10%	4	2.2%	-8%	CC1(C)Oc2ccc(C(=O)N3CCOCC3)cc2N(CC(=O)Nc2ccccc2)C1=O
3%	1	-0.4%	-4%	O=C(c1ccc([N+](=O)[O-])cc1)N1CCSC1c1ccc(Br)cc1 (stereo unspecified)
-8%	·	-2.9%	-1%	CCOc1ccccc1NC(=O)CSc1nncc2ccccc12
-2%	·	0.3%	·	Cc1ccc(C)c(S(=O)(=O)N(C)c2ccc(OC(=O)CN3C(=O)NC4(CCCC4)C3=O)cc2)c1
26%	3	-5.4%	-1%	ClC1(Cl)CC1Cn1c(C2CC2)nc2ccccc21 (stereo unspecified)
11%	1	-0.5%	2%	Cc1ccc(NC(=O)CSc2nnc(CNC(=O)c3ccccc3F)o2)cc1
-24%	0	-2.2%	-4%	Cc1ccccc1Nc1nc2ccccc2n1C(C)C
0%	-4	4.7%	0%	O=C(O)c1ccccc1N1C(=O)C2C3CCC(C3)C2C1=O (stereo unspecified)

Full records, quoted from the list. Screens in order: Rango dissoc inh, GLA inh pH 4.5, Rango complex inh, miR-21 reporter
Entry for Nc1nc(COC(=O)C2CCN(C(=O)c3ccc(Cl)cc3)CC2)nc(Nc2ccccc2)n1 → -5%, ·, -1.0%, ·
Entry for C[C@H](O)[C@H](O)[C@H]1CNc2nc(N)[nH]c(=O)c2N1 → -16%, ·, ?, ·
Entry for CN1CCC(=NNC(=O)C(=O)NC2CCCCC2)CC1 → -3%, -1, 0.8%, 0%
Entry for COC(=O)[C@@H](NC(=O)c1cc(COc2cncc(Cl)c2)on1)c1ccccc1 → 0%, ·, -0.7%, -20%

More records
Rango dissoc inh	GLA inh pH 4.5	Rango complex inh	miR-21 reporter	SMILES
10%	·	-3.4%	0%	Nc1ccccc1C(=O)NCc1ccco1
0%	1	1.8%	-4%	CC(C)(C)SCCNC(=O)CSCc1ccc([N+](=O)[O-])cc1
16%	·	-0.5%	·	O=C1CCCC2=C1C(c1ccc(O)c(O)c1)Nc1ccc3ccccc3c12 (stereo unspecified)
4%	-3	-2.4%	-6%	CCN(CC)CCNC(=O)C1CCC(=O)N(c2ccc(OC)cc2)C1c1ccc(F)cc1 (stereo unspecified)
1%	-7	-4.7%	0%	COc1cccc(N2CCN(C(=O)CN(C)S(=O)(=O)c3ccc4c(c3)c(=O)n(C)c(=O)n4C)CC2)c1
?	·	?	13%	CCN1C(=NCc2cc(OC)c(OC)c(OC)c2)N[C@@H](c2cccc(C(F)(F)F)c2)C(C(=O)OC)=C1C
?	-18	?	0%	CCOC(=O)c1c(-c2ccc(C)cc2)csc1NC(=O)/C(C#N)=C/c1ccc(O)c(OC)c1
10%	2	-0.1%	-4%	CCn1c(COc2ccc(=O)n(-c3ccccc3)n2)nnc1SCc1ccccc1C
0%	-1	-0.2%	1%	O=C(Nc1cccc(Cl)c1)Nc1ccnc(-c2cccnc2)n1
-8%	·	-2.9%	·	COc1ccccc1C(CNC(=O)c1ccc(NS(=O)(=O)c2ccc3c(c2)OCCO3)cc1)N(C)C (stereo unspecified)
-2%	·	4.3%	·	O=C(OCC(=O)N1CCN(S(=O)(=O)c2ccc(Cl)cc2)CC1)c1cccc(OC(F)F)c1
-12%	1	-0.2%	-1%	Cc1ccccc1NC1=NC(=S)N(CC(N)=O)C12CCOC(C)(C)C2 (stereo unspecified)
2%	-3	1.2%	-7%	COc1cc(C(C)=O)ccc1COc1ccc(C(=O)O)cc1OC
·	-8	·	-65%	CNC(=O)c1c(NC(=O)c2nc3ccccc3s2)sc2c1CCC2
2%	-4	3.6%	-5%	C=CCn1c(SCC(=O)O)nnc1-c1cccs1
21%	3	-1.0%	-13%	COC(=O)c1ccsc1NC(=O)C1COc2ccccc2O1 (stereo unspecified)
0%	5	?	-4%	O=C(c1cc2ccccc2oc1=O)N1CCSC1c1ccco1 (stereo unspecified)
1%	·	-6.0%	-7%	O=C(C1CC1)N1N=C(c2ccc(Br)cc2)CC1(O)C(F)(F)F (stereo unspecified)

Part of the list above in another layout.
Molecule | Rango dissoc inh | GLA inh pH 4.5 | Rango complex inh | miR-21 reporter
CC(C)(C)SCCNC(=O)CSCc1ccc([N+](=O)[O-])cc1 | 0% | 1 | 1.8% | -4%
CCn1c(COc2ccc(=O)n(-c3ccccc3)n2)nnc1SCc1ccccc1C | 10% | 2 | -0.1% | -4%
